Beta apoptosis: beta cell apoptosis inhibition; INS-1E cytokine-induced death, ATP luminescence, 48 h; percent of positive-control rescue, neutral wells zero; protection from apoptosis, % (test concentration not listed); 300,000 compounds, 0.8% hits;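 active means all replicates at 75% or more, or half of them and the mean; inconclusive means half reach 75% but not the mean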;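 further: 0% = cytokine-treated negative control wells and 100% = positive control rescue; higher means more ATP so stronger rescue from cytokine killing; wells of about 40 µL received 100 nL stock; the first replicate is given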
RanGTP-Impb inh: disruptors of Ran-importin-beta complex formation – biochemical, FRET, CFP-Ran, YFP-importin-beta, homogeneous, primary screen; cell-free CFP-Ran/YFP-importin-beta FRET ratio; inhibition, % (test concentration not listed); 300,000 compounds, 1.1% hits; AID 2216;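 active means most replicates above 15%; inconclusive means exactly half above 15%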;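 further: 0% = DMSO wells and 100% = Ran loaded with GDP instead of GTP; wells of about 40 µL received 100 nL stock; the first replicate is given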
Vif A3G: HIV-1 Vif–A3G interaction blockers – biochemical, TR-FRET, GST-Vif 1-94, biotin-A3G peptide, dose response retest, primary screen (AID 1117319). TR-FRET GST-Vif / biotin-A3G peptide binding; higher % means a stronger effect; test concentration not given here; strong numbers were not always called active. inhibition, %, or IC50 in µM where a hit was titrated. 260,000 compounds, 0.57% hits;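 active means above the screen mean plus three standard deviations and confirmed in dose response; inconclusive means results disagree or hit not tested in dose response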;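 further: Vif residues 1-94 fused to GST binding biotinylated APOBEC3G peptide 110-148; 0% = full assay without inhibitor and 100% = GST in place of GST-Vif; retest series ran down from 100 µM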
T cruzi repl: T. cruzi replication inhibition | AID 1885 | 300,000 compounds, 1.4% hits | inhibition, % (concentration not given with the values) | T. cruzi beta-gal in NIH3T3, luminescence, 90 h;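 active means mean inhibition across valid replicates above about 55%, limit read from the data; inconclusive means mean below that limit but half or more replicates reach it; inactive means mean below it, under half of replicates reach it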;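 further: signal also drops with host cell toxicity which is not excluded here; 0% = plate median of DMSO wells and 100% = zero luminescence signal; higher percent means less beta-gal luminescence so fewer parasites; stock transfer was 50 nL into about 50 µL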
AF4-AF9 inh: MLL-AF4/AF9 protein interaction inhibition. P42568. AlphaScreen, biotin-AF4 peptide binding to FLAG-AF9. inhibition, % at 10 µM. 350,000 compounds, 0.47% hits;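 active means every replicate reaching a set inhibition limit, whatever the replicate mean, cut at about 25% in these data; inconclusive means mean inhibition reaches that limit but some replicates miss it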;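 further: 0% = plate neutral control median and 100% = total signal loss; the record names both 10 and 1 µM as test concentration; the first replicate is given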
Target sequence (P42568 whole entry, looked up): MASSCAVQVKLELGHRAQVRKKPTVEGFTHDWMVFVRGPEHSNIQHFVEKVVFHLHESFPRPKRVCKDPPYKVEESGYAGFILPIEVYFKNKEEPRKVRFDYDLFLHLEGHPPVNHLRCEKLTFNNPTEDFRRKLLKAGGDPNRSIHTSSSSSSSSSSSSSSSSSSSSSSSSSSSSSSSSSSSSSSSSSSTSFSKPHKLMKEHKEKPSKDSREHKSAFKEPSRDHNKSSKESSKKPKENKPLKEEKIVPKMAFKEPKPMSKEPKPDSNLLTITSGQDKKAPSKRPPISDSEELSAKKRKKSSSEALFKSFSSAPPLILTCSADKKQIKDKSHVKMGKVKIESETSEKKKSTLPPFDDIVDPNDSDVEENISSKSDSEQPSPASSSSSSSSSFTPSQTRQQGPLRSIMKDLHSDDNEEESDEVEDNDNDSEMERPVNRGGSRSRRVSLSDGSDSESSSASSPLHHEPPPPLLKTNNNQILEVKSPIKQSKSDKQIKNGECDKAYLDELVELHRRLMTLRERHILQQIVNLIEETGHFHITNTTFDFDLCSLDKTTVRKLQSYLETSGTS
Bfl-1 A1 inh: inhibitors of the anti-apoptotic protein A1, read as caspase activation; MEF A1-2A-BIM cells, Caspase-Glo 3/7 luminescence, 3 h; percent of clofoctol response, vehicle zero; caspase activation, % (concentration not given with the values); 330,000 compounds, 0.066% hits;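 active means over half of replicate activation scores above 10%, or exactly half above 10 with the replicate mean above 10; inconclusive means replicate mean below 10 yet half the replicates above 10; inactive means over half of replicates below 10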;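 further: wells of about 30 µL received 50 nL stock; many hits fall short of the cut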
rRNA inh HTS: inhibits bacterial ribosomal RNA function over humanized ribosomes; E. coli WT GFP vs humanized-ribosome RFP mutants, fluorescence, 24 h; stronger effect = lower value; DMSO median 0, no signal -100; GFP signal change (wild-type ribosome), % (concentration not given with the values); 350,000 compounds, 1.6% hits;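 active means significant combined selectivity score with lowered wild-type GFP, culture density cut under 30%, mutant RFP and density less affected; inactive means any of these conditions unmet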; further: one replicate is shown; some compounds called inactive have numbers as strong as hits
Calb FLC: C. albicans growth modulation with fluconazole | C. albicans CaCi-2 (fluconazole-resistant clinical isolate) + fluconazole, Alamar Blue growth, 48 h | 300,000 compounds, 0.57% hits | AID 1979 | growth inhibition, % (test concentration not listed);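 active means most replicates above 75%; inconclusive means exactly half above 75%; inactive means most below 75%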;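 further: all wells also contain fluconazole at 8 µg/ml as a sub-toxic cotreatment; 0% = median of DMSO wells and 100% = median of geldanamycin control wells; wells of about 8 µL received 7.5 nL stock; the first replicate is given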
rRNA inh HTS OD600: further read-out of rRNA inh HTS, marked with its call; OD600 change, %; measured here: OD600 growth;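 optical density of the mix in the first replicate; 0 = DMSO median and -100 = no signal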
rRNA inh HTS RFP: recorded beside rRNA inh HTS, whose call it bears; RFP signal change, %; measured here: RFP humanized mutant strains;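 first replicate; 0 = DMSO median and -100 = no signal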
Starred values were filed as active, the others as inactive. Not all compounds are listed (hit frequency here may not be typical).

Screening CC1CCCN(c2nc3nonc3nc2Nc2ccccc2F)C1 (stereo unspecified) returned Beta apoptosis -2, RanGTP-Impb inh 5.5, T cruzi repl 5, AF4-AF9 inh 0.5, Bfl-1 A1 inh -0.1, rRNA inh HTS 5, Calb FLC -9, rRNA inh HTS OD600 2 and rRNA inh HTS RFP -5.9.
Cc1c(Cl)cccc1NC(=O)c1cccnc1 was read as Beta apoptosis -2, RanGTP-Impb inh -2.2, Vif A3G 3%, T cruzi repl -5, AF4-AF9 inh 1.3, Bfl-1 A1 inh -0.5, rRNA inh HTS 9, Calb FLC -10, rRNA inh HTS OD600 10 and rRNA inh HTS RFP -2.5.
For Cc1ccsc1C(=O)NNC(=O)CCN1CCN(c2ccccc2)CC1 the results were Beta apoptosis 4, RanGTP-Impb inh 8.0, Vif A3G 0%, T cruzi repl -4, AF4-AF9 inh -1.2, Bfl-1 A1 inh 0.7, rRNA inh HTS 9, Calb FLC -1, rRNA inh HTS OD600 7 and rRNA inh HTS RFP -1.5.
`CC1CCN(CCNC(=O)CN(C)S(=O)(=O)c2cccc3nsnc23)CC1` gave Beta apoptosis -7, RanGTP-Impb inh -3.2, Vif A3G inconclusive, T cruzi repl -10, Bfl-1 A1 inh 1.3 and Calb FLC -8.
Screening COC(=O)c1cc(OC)nc2ccc(Br)cc12 returned Beta apoptosis -1, RanGTP-Impb inh -3.9, Vif A3G -6%, T cruzi repl 3, AF4-AF9 inh -1.6, Bfl-1 A1 inh -0.3, rRNA inh HTS -2, Calb FLC -3, rRNA inh HTS OD600 6 and rRNA inh HTS RFP -2.7.
`O=S(=O)(NC1c2cccc3cccc(c23)C1N1CCNCC1)c1ccccc1` (stereo unspecified) gave Beta apoptosis -14, RanGTP-Impb inh 1.9, Vif A3G 15%, T cruzi repl 20, Bfl-1 A1 inh 0.5 and Calb FLC 2.
Screening CCOC(=O)Oc1ccc2c(c1)C(C)=CC(C)(C)N2C(=O)OCC returned Beta apoptosis -3, RanGTP-Impb inh -2.4, Vif A3G -5%, T cruzi repl 3, Bfl-1 A1 inh 1.0 and Calb FLC 8.
Screening Cc1ccc(/C=N/NC(=O)CSc2nnc(-c3ccc(Cl)cc3)n2-c2ccccc2)o1 returned Beta apoptosis 1, RanGTP-Impb inh 5.1, Vif A3G 2%, T cruzi repl 0, Bfl-1 A1 inh -0.8 and Calb FLC 1.
`Clc1cccc(Cl)c1/C=C/c1ccn[nH]1` gave Beta apoptosis 9, RanGTP-Impb inh 2.0, Vif A3G -6%, T cruzi repl -72, AF4-AF9 inh 5.3, Bfl-1 A1 inh -0.6, rRNA inh HTS -39, Calb FLC -20, rRNA inh HTS OD600 -69 and rRNA inh HTS RFP -11.
COc1cc(C2c3[nH]c4ccccc4c3C[C@@H]3C(=O)N(Cc4ccco4)CC(=O)N23)cc(OC)c1OC (stereo partly specified) was read as Beta apoptosis 0, RanGTP-Impb inh -2.3, Vif A3G 2%, T cruzi repl 2, AF4-AF9 inh 6.2, Bfl-1 A1 inh 1.1, rRNA inh HTS 5, Calb FLC 19, rRNA inh HTS OD600 -6 and rRNA inh HTS RFP -0.6.
Screening CC1CCC(NC(=O)c2ccc(NC(=O)CC3SC(N4CCCC4)=NC3=O)cc2)CC1 (stereo unspecified) returned Beta apoptosis -8, RanGTP-Impb inh inconclusive, Vif A3G -2%, T cruzi repl -7, AF4-AF9 inh -13, Bfl-1 A1 inh 0.1, rRNA inh HTS 1, Calb FLC 43, rRNA inh HTS OD600 1 and rRNA inh HTS RFP -1.7.
For Cc1ccccc1CN(C)c1ccc(S(=O)(=O)N2CCN(C)CC2)cn1 the results were Beta apoptosis -6, Vif A3G -2%, AF4-AF9 inh -0.9, Bfl-1 A1 inh -0.8, rRNA inh HTS -4, rRNA inh HTS OD600 -2 and rRNA inh HTS RFP -0.5.
NC(=O)c1ccc(Oc2ccc(Cl)cc2)c([N+](=O)[O-])c1 was read as Beta apoptosis -4, RanGTP-Impb inh -6.6, Vif A3G -12%, T cruzi repl -34, AF4-AF9 inh 2.3, Bfl-1 A1 inh 0.0, rRNA inh HTS -3, Calb FLC -5, rRNA inh HTS OD600 5 and rRNA inh HTS RFP -3.0.
CCOC(=O)C(=CNc1ccccc1Cl)C(=O)OCC was read as RanGTP-Impb inh 2.6, T cruzi repl 5, AF4-AF9 inh -0.4, rRNA inh HTS -13, Calb FLC 15, rRNA inh HTS OD600 -21 and rRNA inh HTS RFP -8.8.
Cc1c(C(=O)NCCN2CCOCC2)oc2ccccc12 was read as Beta apoptosis -3, RanGTP-Impb inh 3.3, Vif A3G -1%, T cruzi repl -3, Bfl-1 A1 inh 0.0 and Calb FLC -2.
O=[N+]([O-])c1ccc(Sc2cccc3cccnc23)cc1 was read as Beta apoptosis 3, RanGTP-Impb inh -1.0, Vif A3G 4%, T cruzi repl -1, AF4-AF9 inh -39, Bfl-1 A1 inh -0.9, rRNA inh HTS -14, Calb FLC -9, rRNA inh HTS OD600 -10 and rRNA inh HTS RFP -4.0.
CCOc1ccc2[nH]c(=O)c(CN(CCc3ccccc3)C(=O)N3CCOCC3)cc2c1 was read as Beta apoptosis -2, RanGTP-Impb inh -1.6, Vif A3G -39%, T cruzi repl 16, AF4-AF9 inh 7.0, Bfl-1 A1 inh inconclusive, rRNA inh HTS 19, Calb FLC -6, rRNA inh HTS OD600 7 and rRNA inh HTS RFP -8.8.
Screening COc1ccc(S(=O)(=O)N2CCN=C2SCc2cccc(F)c2)cc1 returned Beta apoptosis -6, RanGTP-Impb inh 1.8, Vif A3G -2%, T cruzi repl 19, AF4-AF9 inh 2.2, Bfl-1 A1 inh 0.0, rRNA inh HTS -7, Calb FLC 11, rRNA inh HTS OD600 -32 and rRNA inh HTS RFP 4.2.
O=C(/C=C/c1ccccc1Cl)N(c1ccccn1)C1CCCCC1 was read as Beta apoptosis -7, RanGTP-Impb inh 5.7, T cruzi repl 4, Bfl-1 A1 inh -0.4 and Calb FLC -11.
Screening O=C(CNS(=O)(=O)c1ccc(Br)cc1)NC1CCCC1 returned Beta apoptosis 1, RanGTP-Impb inh 0.4, T cruzi repl 7, AF4-AF9 inh -0.5, Bfl-1 A1 inh 0.3, rRNA inh HTS 8, Calb FLC -8, rRNA inh HTS OD600 14 and rRNA inh HTS RFP 1.6.
CCc1ccc(NC(=O)CCN2C(=O)c3cccnc3C2=O)cc1 was read as Beta apoptosis 0, RanGTP-Impb inh -1.5, Vif A3G -5%, T cruzi repl 14, Bfl-1 A1 inh 1.2 and Calb FLC 15.
For CCS(=O)(=O)N1Cc2ccccc2CC1C(=O)N(C)CC(=O)Nc1ccc(F)c(F)c1F (stereo unspecified) the results were Beta apoptosis 0, RanGTP-Impb inh -2.5, T cruzi repl -2, AF4-AF9 inh -0.2, Bfl-1 A1 inh -2.1, rRNA inh HTS 1, Calb FLC 2, rRNA inh HTS OD600 9 and rRNA inh HTS RFP -0.3.
Screening S=C(NCCN1CCOCC1)N1CCN(c2cccc(Cl)c2)CC1 returned Beta apoptosis 1, RanGTP-Impb inh 0.1, Vif A3G 2%, T cruzi repl 0, AF4-AF9 inh 0.3, Bfl-1 A1 inh 0.1, rRNA inh HTS -6, Calb FLC -5, rRNA inh HTS OD600 -9 and rRNA inh HTS RFP 0.4.
`O=C(COC(=O)c1ccc([N+](=O)[O-])cc1)Nc1cccnc1Cl` gave Beta apoptosis 0, RanGTP-Impb inh 7.6, Vif A3G -3%, T cruzi repl -20, AF4-AF9 inh -9.7, Bfl-1 A1 inh -0.6, rRNA inh HTS 17, Calb FLC -16, rRNA inh HTS OD600 11 and rRNA inh HTS RFP 2.0.
Screening CCc1[nH]nc2c1C(c1cccc(OC(=O)N3CCOCC3)c1)C(C#N)=C(N)O2 (stereo unspecified) returned RanGTP-Impb inh inconclusive, Vif A3G -1%, T cruzi repl 6, AF4-AF9 inh -10, Bfl-1 A1 inh -0.5, rRNA inh HTS 7, Calb FLC -1, rRNA inh HTS OD600 0 and rRNA inh HTS RFP -7.5.
Screening COc1ccc(S(=O)(=O)N(C)c2ccc(C(=O)Nc3ccccc3C(=O)N3CCOCC3)cc2)cc1 returned Beta apoptosis 2, RanGTP-Impb inh 4.6, T cruzi repl 0, AF4-AF9 inh 3.8, Bfl-1 A1 inh 1.8, rRNA inh HTS 3, Calb FLC 5, rRNA inh HTS OD600 3 and rRNA inh HTS RFP 2.2.
`O=[N+]([O-])c1ccc(NCc2ccccc2N2CCC(CO)CC2)nc1` gave Beta apoptosis -9, RanGTP-Impb inh 5.4, Vif A3G -3%, T cruzi repl 9, AF4-AF9 inh 5.4, Bfl-1 A1 inh -0.2, rRNA inh HTS -19, Calb FLC -3, rRNA inh HTS OD600 -10 and rRNA inh HTS RFP 9.6.
For Nn1c(Cc2ccccc2)nc2cc(Cl)ccc2c1=O the results were Beta apoptosis 11, RanGTP-Impb inh 2.1, T cruzi repl -2, AF4-AF9 inh -4.7, Bfl-1 A1 inh -1.0, rRNA inh HTS -3, Calb FLC -1, rRNA inh HTS OD600 -1 and rRNA inh HTS RFP 8.0.
Screening Cc1ccc(N(CC(=O)NCc2ccc(F)cc2)C(=O)c2snc(C(N)=O)c2N)cc1C returned Beta apoptosis 3, RanGTP-Impb inh 2.5, T cruzi repl 7, AF4-AF9 inh 2.8, Bfl-1 A1 inh -1.1, rRNA inh HTS -3, Calb FLC -9, rRNA inh HTS OD600 -18 and rRNA inh HTS RFP 3.0.
CCC(Sc1nc2cc3c(cc2c(=O)n1Cc1ccco1)OCO3)C(=O)NCCOC (stereo unspecified) was read as Beta apoptosis -9, RanGTP-Impb inh -0.3, Vif A3G -2%, T cruzi repl 7, Bfl-1 A1 inh -0.4 and Calb FLC 13.
CCOC(=O)c1oc2ccc(S(=O)(=O)n3nc(-c4ccc(Cl)cc4)cc3N)cc2c1C was read as Beta apoptosis 31, RanGTP-Impb inh -4.6, Vif A3G inconclusive, T cruzi repl 33, AF4-AF9 inh 1.5, Bfl-1 A1 inh -0.1, rRNA inh HTS 8, Calb FLC 17, rRNA inh HTS OD600 9 and rRNA inh HTS RFP 5.7.
Screening O=C(COC(=O)Cc1c(Cl)cccc1Cl)Nc1ccc2[nH]c(=O)[nH]c2c1 returned Beta apoptosis 3, RanGTP-Impb inh 5.0, Vif A3G -2%, T cruzi repl -9, AF4-AF9 inh 1.0, Bfl-1 A1 inh -0.2, rRNA inh HTS -21, Calb FLC 10, rRNA inh HTS OD600 -22 and rRNA inh HTS RFP -1.3.

Screening data as filed in PubChem BioAssay.
